Bioassay records deposited in PubChem BioAssay by National Center for Advancing Translational Sciences (NCATS).
CCT modulator: High-Throughput Screening for Modulators of Cytosolic Chaperonin Activity; purified chaperonin ATPase assay, HTRF ADP detection, 30 min; activity change, % (test concentration not listed), hits read low; 360,000 compounds, 0.3% hits; in the data active = activity change below about -30%; also: % is scaled to controls: 0 for no effect and ±100 for the full control effect
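First, chaperonin was dispensed at 40 nM or 20 nM final depending on batch activity. Next, compounds were pinned at 76 uM and ATP added at 10 uM. After 30 min at 37 °C, ADP detection reagents ran 30 min at ambient temperature.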
MmCpn inh: Inhibitors of TCP-1 ring complex (TRiC) of Methanococcus maripaludis (MmCpn): qHTS | purified Mm-Cpn ATPase, ADP Transcreener TR-FRET | Potency, µM (top dose mostly 76.9 µM), without a hit: at the highest dose activity, negative = inhibition, hits mostly inhibitors | 330,000 compounds, 0.031% hits | AID 504842, 2011; active = well fitted inhibition curve with a large enough effect; inconclusive = small, poorly fitted or top-dose-only effect; also: potency is read from the fitted curve at half-maximal effect; % is scaled to controls: 0 for no effect and ±100 for the full control effect; nearly all actives have a fitted effect of over 80% in size
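Inhibition of chaperonin ATP hydrolysis is measured as reduced ADP production, detected by competitive TR-FRET in which signal falls with ADP. Final enzyme 25 nM and ATP 10 uM, reacted 30 min at 37°C.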
Akt phos inh: HTS Assay for Inhibitors of Akt Phophorylation: Primary Screen; 360,000 compounds, 0.32% hits; Neuro2A IGF-stimulated pAkt S473 HTRF, 20 min; active compounds read low; activity change, % for hits at 50 µM; in the data active = activity change below about -80%; inconclusive = mostly about -51% to -80%; also: % is scaled to controls: 0 for no effect and ±100 for the full control effect
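Neuro2A cells in DMEM with 0.5% FBS, overnight at 37 deg C, given compound at single 50 µM final, then IGF (6 nM final) for 20 min at 37 deg C. Lysed; phospho-Akt Ser473 by HTRF after 24 h, 665/615 ratio.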
D3 antag: qHTS of D3 Dopamine Receptor Antagonist: qHTS. max response, negative = inhibition, %. D3R cells, DiscoveRx beta-arrestin luminescence, antagonist mode; active compounds read low. AID 652054, 2013. 360,000 compounds, 2.5% hits. D(3) dopamine receptor (Homo sapiens), P35462; in the data active = max response below about -50%; inconclusive = no clear call, values can overlap the other calls; also: % is scaled to controls: 0 for no effect and ±100 for the full control effect; mostly tested at two doses, the higher about 12 µM
Target sequence (P35462 whole entry, looked up): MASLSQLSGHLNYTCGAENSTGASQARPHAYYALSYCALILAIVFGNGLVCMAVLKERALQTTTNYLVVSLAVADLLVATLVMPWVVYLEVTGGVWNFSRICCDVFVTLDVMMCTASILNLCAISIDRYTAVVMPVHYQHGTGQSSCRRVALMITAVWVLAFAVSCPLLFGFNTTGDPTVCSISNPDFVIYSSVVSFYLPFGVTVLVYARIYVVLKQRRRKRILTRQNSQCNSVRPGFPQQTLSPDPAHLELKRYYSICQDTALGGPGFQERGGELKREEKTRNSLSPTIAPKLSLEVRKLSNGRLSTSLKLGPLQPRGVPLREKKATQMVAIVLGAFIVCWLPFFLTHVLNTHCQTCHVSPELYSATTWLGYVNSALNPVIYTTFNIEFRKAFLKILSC
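Cells expressing the human receptor were seeded at 1500 cells/well, incubated overnight at 37 degrees C in 5% CO2, then exposed to library compounds with dopamine controls for 90 minutes at 37 degrees C before luminescent detection.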
D3 ag: qHTS of D3 Dopamine Receptor Agonist: qHTS | D(3) dopamine receptor (Homo sapiens), P35462 | D3R DiscoveRx beta-arrestin cells, luminescence, 90 min | max activation, % | 410,000 compounds, 0.58% hits | AID 652048, 2013; in the data active = max activation above about 30%; also: 0% is about no effect; mostly tested at two doses, the higher about 12 µM
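Agonist mode: compounds and dopamine controls were applied to plated cells for 90 min at 37 degrees C after an overnight attachment at 1500 cells/well. Luminescent read-out followed 30 - 60 minutes at room temperature with DiscoveRx detection reagent.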
Active calls of the source: *; i = inactive; ? = inconclusive; . = not tested or not shown. This is a subset. The share of hits here may be higher or lower than overall.

SMILES	CCT modulator	MmCpn inh	Akt phos inh	D3 antag	D3 ag
O=C(O)c1cc2ccc3ccccc3c2oc1=O	-1.9	-4%	i	-1	4
CC(C)CCn1nnnc1CN1CCN(c2ccccc2)CC1	-0.5	-2%	i	0	-12
O=C(Cn1cnc2sc3c(c2c1=O)CCCC3)NCC(=O)Nc1ccccc1F	-0.2	-6%	i	-1	0
COc1ccc(/C=C/C(=O)NC(=S)N2CCSCC2)cc1	-1.5	-5%	i	-15	2
CCN(CC)CCNc1nc2nonc2nc1NCCN(CC)CC	2.6	1%	i	-4	2
CCOCC(=O)OCC(=O)NC12CC3CC(CC(C3)C1)C2	0.5	1%	i	13	3
COc1ccccc1C(CC(=O)Nc1ccccc1C)c1ccc(OC(C)C)cc1 (stereo not given)	0.2	-4%	i	2	-1
CCSc1nnc2c(n1)[nH]c1c(C)cccc12	-0.7	0%	i	11	6
O=C(CNC(=O)Cn1cnc2sc3c(c2c1=O)CCCC3)NCc1ccccn1	1.3	3%	i	16	3
COc1ccc(CCC(=O)NCc2cccc(C(F)(F)F)c2)cc1	-2.0	2%	i	-21	-2
CCOC(=O)N1CCN(C(=O)c2ccc3c(c2)NC(=O)/C(=C\c2cccc(C)c2)S3)CC1	-2.4	0%	i	-8	8
CCN1CCCC1CNS(=O)(=O)c1c(C)cc(C)cc1C (stereo not given)	-5.9	1%	i	-100*	-19
Cc1ccccc1OCc1nc(-c2ccc(NC(=O)c3ccc4c(c3)OCO4)cc2)no1	-2.9	-12%	i	-8	4
O=C1CCC/C(=N/NC(=O)c2ccc(NS(=O)(=O)c3cccs3)cc2)C1	1.2	-1%	i	-1	5
CC(=O)Nc1ccc(S(=O)(=O)N[C@@H](C)C(=O)OCC(=O)c2ccc[nH]2)cc1	-1.4	1%	i	-25	1
Cc1ccccc1CN1CCNC(=O)C1CC(=O)NCCC1=CCCCC1 (stereo not given)	-0.3	-4%	i	-9	-1
COc1cccc(OC)c1C1=NC(C)(C)CO1	-2.0	-4%	i	-11	1
N#CC(c1cccc(C(F)(F)F)c1)(c1ncc(C(F)(F)F)cc1Cl)N1CCOCC1 (stereo not given)	0.3	0%	i	19	23
CC1CCN(C(=O)CCNC(=O)Cn2cnc3sc4c(c3c2=O)CCCC4)CC1	-2.1	1%	i	-30	-3
CN1CCNC(=O)C1CC(=O)NCC1(c2ccccc2)CCCCC1 (stereo not given)	-0.1	-1%	i	3	8
O=C(Nc1nnc(Cc2ccccc2F)s1)c1ccccc1Cl	-4.5	0%	i	0	-3
CC(=O)OCCc1c(C)nc2nc[nH]n2c1=O	-1.0	1%	i	3	1
C=CCNC(=O)C1(S(=O)(=O)c2ccccc2)CC=CC1	0.4	-1%	i	-9	-13
COc1ccc(C(=O)COC(=O)c2nn(C)cc2Cl)cc1	-2.4	-4%	i	-3	-2
C/C(=N\NC(=O)c1ccc(NS(=O)(=O)c2cccs2)cc1)c1ccccc1	-5.2	0%	i	6	13

Full records as entered above:
Shown for `Cc1ccccc1CN1CCNC(=O)C1CC(=O)NCCC1=CCCCC1` (stereo not given) : CCT modulator: -0.3; MmCpn inh: -4%; Akt phos inh: i; D3 antag: -9; D3 ag: -1
Shown for `Cc1ccccc1OCc1nc(-c2ccc(NC(=O)c3ccc4c(c3)OCO4)cc2)no1` : CCT modulator: -2.9; MmCpn inh: -12%; Akt phos inh: i; D3 antag: -8; D3 ag: 4

Returning to the listing, repeating the four entries before the break.
SMILES	CCT modulator	MmCpn inh	Akt phos inh	D3 antag	D3 ag
CC(=O)OCCc1c(C)nc2nc[nH]n2c1=O	-1.0	1%	i	3	1
C=CCNC(=O)C1(S(=O)(=O)c2ccccc2)CC=CC1	0.4	-1%	i	-9	-13
COc1ccc(C(=O)COC(=O)c2nn(C)cc2Cl)cc1	-2.4	-4%	i	-3	-2
C/C(=N\NC(=O)c1ccc(NS(=O)(=O)c2cccs2)cc1)c1ccccc1	-5.2	0%	i	6	13
CC(C)C(C(=O)OCC(=O)c1ccc2c(c1)NC(=O)CO2)N1C(=O)c2ccccc2C1=O (stereo not given)	-4.1	1%	i	29	-2
O=C(O)COCC(=O)Nc1ccc2c(c1)ncn2CCc1ccccc1	-0.1	3%	i	11	2
O=C(NN=Cc1ccc(F)c(F)c1)c1ccc(NS(=O)(=O)c2cccs2)cc1	1.5	-1%	i	2	2
O=C1Nc2cc(C(=O)N3CCc4ccccc4C3)ccc2S/C1=C\c1ccccc1	-1.6	3%	i	-20	-3
CCN1CCCC1CNS(=O)(=O)c1cccc(C(F)(F)F)c1 (stereo not given)	0.6	-3%	i	1	0
Cc1cc2cc(C(c3nnnn3Cc3ccco3)N3CCc4ccccc43)c(=O)[nH]c2cc1C (stereo not given)	-0.5	?	i	?	3
COc1cccc2cc(C(=O)CS(=O)(=O)c3ccc(Cl)cc3)c(=O)oc12	-2.3	1%	i	9	-1
c1ccc(-c2nn3cnnc3c3ccccc23)cc1	-1.7	3%	i	3	1
O=c1c2c(nc3c(-c4ccccc4)c[nH]n13)CCC2	-1.5	-3%	i	-13	-7
COCCNC(=O)C1(S(=O)(=O)c2ccccc2)CC=CC1	-1.2	0%	i	6	8
COc1ccc2cc(C#N)c(N3CCOCC3)nc2c1	0.5	-3%	i	-24	-2
CC1CCN(C(=O)CCCNC(=O)Cn2cnc3sc4c(c3c2=O)CCCC4)CC1	-1.3	1%	i	3	15
COc1cc(OC)c(/C=N/n2c(C)nnc2C)c(OC)c1	-0.8	-7%	i	-11	3
CC1(C)COC(c2cccc(C3=NC(C)(C)CO3)n2)=N1	-4.5	0%	i	21	1
COc1ccc(/C=C2/Sc3ccc(C(=O)N4CCc5ccccc5C4)cc3NC2=O)cc1	-3.6	-2%	i	-24	1
CCC(C)(C)n1nnnc1CN1CCN(c2nc3cc(OC)ccc3cc2C#N)CC1	-4.3	-15%	i	2	4
O=C(N/N=C/c1ccncc1)c1ccc(NS(=O)(=O)c2cccs2)cc1	-4.7	1%	i	-27	-1
Cc1[nH]n2c(=O)c(C#N)c(-c3ccccc3)nc2c1-c1ccccc1	-0.6	-1%	i	-60*	0
NC(=O)c1cc(NC(=O)c2ccc(NS(=O)(=O)c3cccs3)cc2)cc(C(N)=O)c1	-1.8	0%	i	-13	-14
CCN1CCCC1CNS(=O)(=O)c1ccc(C(=O)Nc2ccccc2)cc1 (stereo not given)	-4.8	2%	i	0	-13
CC(C)C[C@H](NC(=O)c1nc[nH]c1C(=O)NC1CCN(C(=O)OC(C)(C)C)CC1)C(=O)OC(C)(C)C	-0.2	.	i	5	14
COc1ccccc1NC(=O)C1=C(C)Nc2nnnn2C1c1ccncc1 (stereo not given)	-3.5	1%	i	10	0
CN1CCNC(=O)C1CC(=O)NCCC1=CCCCC1 (stereo not given)	-1.4	0%	i	?	-1
Cc1nc2nc[nH]n2c(=O)c1NC(=O)CCc1ccccc1	0.5	-1%	i	-1	5
CCOC(=O)C(=O)NC12CC3CC(CC(C3)C1)C2	0.9	-1%	i	-21	1

(listing goes on)
SMILES	CCT modulator	MmCpn inh	Akt phos inh	D3 antag	D3 ag
CCOC(=O)CN1C(=O)SC(Nc2ccc(C)cc2)C1=O (stereo not given)	-0.5	1%	i	16	2
C=C(C)c1cccc(C(C)(C)NC(=O)NCc2ccc(OC)c(OC)c2)c1	-0.9	2%	i	?	1
Cn1ncc(Cl)c1C(=O)Nc1ccncc1	0.8	0%	i	1	2
C/C(=N/NC(=O)c1cccc(C)c1)c1c(O)cc(C)oc1=O	-2.5	0%	i	11	-7
Cc1nn(-c2ccccc2)c2[nH]c(=O)c(CNCc3ccc4c(c3)OCO4)cc12	2.5	2%	i	-65*	3
COC(=O)Nc1sc(C)nc1-c1ccccc1	-3.6	-3%	i	4	-5
C=C(C)c1cccc(C(C)(C)NC(=O)NCC2COCCO2)c1 (stereo not given)	-1.2	2%	i	-8	3
Nc1cc(=O)nc(SCC(=O)N(C2CCCCC2)C2CCCCC2)n1-c1ccccc1	-1.7	-2%	.	?	-10
Cc1ccc(-c2[nH]n3c(=O)c4c(nc3c2C)CCCC4)cc1	0.8	0%	.	7	-2
O=C(Nc1nnc(CCN2CCCCC2)s1)c1cccc(Cl)c1	-2.5	1%	i	-17	-8
Nc1ccccc1Oc1ncc(C(F)(F)F)cc1Cl	-1.7	-1%	i	-7	-11
COC(=O)[C@H](C(C)C)N(Cc1ccccc1)S(=O)(=O)CCN1CCN(c2ccccc2)CC1	-3.0	0%	i	?	-33
C/C(=N\NC(=O)c1cccs1)c1c(O)cc(C)oc1=O	-1.1	0%	i	-6	-2
CC(=O)Nc1cccc(/C(C)=N/NC(=O)c2ccc(NS(=O)(=O)c3cccs3)cc2)c1	-0.6	1%	i	4	-7
Nc1cc(=O)nc(SCC(=O)N2CCN(c3ccccc3)CC2)n1-c1ccc(F)cc1	1.4	2%	i	-2	-7
O=C(NN=Cc1ccccc1OC(F)F)c1ccc(NS(=O)(=O)c2cccs2)cc1	-4.3	-1%	i	7	7
CCOC(=O)c1sc(S(C)(=O)=O)c2c1CC(C)(C)C/C2=N/O	-3.0	-5%	i	-4	4
C=C1CCN([C@@H](CC(C)C)C(=O)N2CCOCC2)S(=O)(=O)c2ccccc21	-3.5	.	i	-11	8
Cn1c(-c2ccc(C#N)cc2)c(C#Cc2ccccc2)c2ccccc21	0.7	.	i	0	3
CCOc1ccccc1-n1cnc(C#N)c1N	1.5	-8%	i	-7	-5
Cc1cccc(NC2SC(=O)N(CC(=O)O)C2=O)c1 (stereo not given)	-2.1	1%	i	19	6
CCOC(=O)c1cc(C(=O)OCC)c2cccc(C)n2c1=O	1.4	1%	i	12	-3
O=C(Nc1ccccc1N1CCCCC1)c1ncoc1-c1cccc(F)c1	-5.6	-5%	i	-1	3
Cc1cc(N/N=C/c2ccc(F)cc2)nc(-n2nc(C)cc2C)n1	0.8	1%	i	-8	-12
CCOc1ccccc1OCCNC1CCCC1	1.0	0%	i	-106*	-7
COc1ccc(/C(O)=C2\C(=O)C(=O)N(c3cc(C)on3)C2c2ccc(OC)c(OC)c2)cc1OC (stereo not given)	-0.1	-2%	i	-10	1
CCN(CC)C(=O)C1=C(C)Nc2nnnn2C1c1cccnc1 (stereo not given)	1.5	-1%	i	4	2
Cc1ccc(NC(=O)C2CC(Cl)=CCC2C(=O)O)c([N+](=O)[O-])c1 (stereo not given)	1.4	1%	i	-25	1

An excerpt from above, showing only MmCpn inh and CCT modulator.
smiles | MmCpn inh | CCT modulator
O=C(Nc1ccccc1N1CCCCC1)c1ncoc1-c1cccc(F)c1 | -5% | -5.6
C=C1CCN([C@@H](CC(C)C)C(=O)N2CCOCC2)S(=O)(=O)c2ccccc21 | . | -3.5
Cc1cccc(NC2SC(=O)N(CC(=O)O)C2=O)c1 (stereo not given) | 1% | -2.1
C/C(=N\NC(=O)c1cccs1)c1c(O)cc(C)oc1=O | 0% | -1.1
CCOc1ccccc1OCCNC1CCCC1 | 0% | 1.0
